# Source: PubChem
# Vaccinia inh: blocks a specific stage of Vaccinia orthopoxvirus infection, primary screen, cell-based, single point | Vaccinia-infected cells, mCherry/Venus stage reporter fluorescence; active compounds read low; some inactives read as strong as hits | activity change (mCherry), % (test concentration not listed) | 89,000 compounds, 0.01% hits | AID 1053133, 2014;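 active = mCherry past -33% and 40 or more points under the early reporter, replicates agreeing; inconclusive = past -33% without that gap or agreement; tested in A549 cells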;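 note: scaled between vehicle wells and reference inhibitor wells; 23 nL library stock went into each well; one replicate is shown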
# Vaccinia inh Venus: also measured in Vaccinia inh; calls as there; activity change (Venus), %; measured here: Venus reporter, other viral stage;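 negative = less Venus signal; first of two replicates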
# Numbers without * were called inactive; ? = inconclusive; · = not tested or not shown; & = joins results of further samples. Not all compounds are listed, so the mix of outcomes need not match the whole.
SMILES,Vaccinia inh,Vaccinia inh Venus
C[C@H]1CN([C@@H](C)CO)C(=O)c2cc(Br)cnc2O[C@H]1CN(C)C(=O)c1ccccc1F,-6.4,6.4
CCCNC(=O)N1C[C@H](O)COC[C@H]2O[C@@H](CC(=O)NCCCN3CCOCC3)CC[C@@H]21,14.8,14.5
O=C(Nc1cc(F)ccc1F)N[C@@H]1CC[C@H](CCn2cc(C3CCCCC3)nn2)O[C@@H]1CO,-21.2,-15.5
CCCNC(=O)[C@H]1[C@H](CO)[C@H]2Cn3c(cccc3=O)[C@H]2N1CC,11.6,7.3
O=C(C[C@@H]1C=C[C@@H](NC(=O)C2CCC2)[C@@H](CO)O1)Nc1nccs1,9.0,2.2
Cc1ccc(S(=O)(=O)N[C@H]2CC[C@H](CCn3cc(C4CCCC4)nn3)O[C@@H]2CO)cc1,-11.2,0.3
Cc1ccc(S(=O)(=O)N(C)C[C@@H]2OCc3cnnn3CCCC(=O)N([C@@H](C)CO)C[C@H]2C)cc1,10.5&11.0,11.0&2.5
CCS(=O)(=O)N1CCCCN2[C@H](CO)[C@@H](c3ccc(-c4ccccc4F)cc3)[C@H]2C1,-10.3,0.6
CO[C@@H]1CN(C)C(=O)c2ccc(NC(=O)C3CCCC3)cc2OC[C@H](C)N(S(C)(=O)=O)C[C@H]1C,7.4,5.7
O=C(NCC1CC1)[C@H]1[C@H](CO)[C@H]2Cn3c(ccc(-c4cccc(F)c4)c3=O)[C@H]2N1CC1CCOCC1,3.9,3.0
COc1cccc(-c2ccccc2[C@@H]2[C@H](C#N)N(C(=O)Cc3ccccc3)[C@H]2CO)c1,-34.8,-18.8
COc1cccc(NC(=O)N[C@H]2C=C[C@H](CC(=O)NCc3ccccn3)O[C@H]2CO)c1,-6.2,-0.1
C[C@@H](NC(=O)C[C@H]1C=C[C@@H](NC(=O)C2CC2)[C@@H](CO)O1)c1ccccc1,13.9,2.1
COCC(=O)N(C)C[C@H]1[C@H](c2ccccc2)[C@H](CO)N1C(=O)NC(C)C,5.3,4.3
C[C@H]1CN([C@@H](C)CO)C(=O)c2cccc(NS(=O)(=O)c3ccc(F)cc3)c2O[C@@H]1CN(C)Cc1ccccc1,17.0,12.9

# Three entries from above, field by field.
> Cc1ccc(S(=O)(=O)N(C)C[C@@H]2OCc3cnnn3CCCC(=O)N([C@@H](C)CO)C[C@H]2C)cc1
  Vaccinia inh: 10.5&11.0; Vaccinia inh Venus: 11.0&2.5
> CCS(=O)(=O)N1CCCCN2[C@H](CO)[C@@H](c3ccc(-c4ccccc4F)cc3)[C@H]2C1
  Vaccinia inh: -10.3; Vaccinia inh Venus: 0.6
> CO[C@@H]1CN(C)C(=O)c2ccc(NC(=O)C3CCCC3)cc2OC[C@H](C)N(S(C)(=O)=O)C[C@H]1C
  Vaccinia inh: 7.4; Vaccinia inh Venus: 5.7

# Continuation.
SMILES,Vaccinia inh,Vaccinia inh Venus
Cc1noc(C)c1S(=O)(=O)Nc1ccc2c(c1)C(=O)N([C@H](C)CO)C[C@@H](C)[C@@H](CN(C)S(=O)(=O)c1cn(C)cn1)O2,-2.0,5.9
COCC(=O)N1[C@H](CO)[C@@H](c2ccccc2C2=CCCC2)[C@@H]1C#N,-13.1,-11.6
C[C@H](CO)N1C[C@H](C)[C@H](CN(C)S(C)(=O)=O)Oc2ccc(NC(=O)Cc3ccccc3)cc2C1=O,12.7,3.3
CCCC(O)C#Cc1cnc2c(c1)C(=O)N([C@H](C)CO)C[C@H](C)[C@H](CN(C)Cc1ccc3c(c1)OCO3)O2 (stereo partly drawn),-0.3,-3.1
CCC(=O)N(C)C[C@H]1Oc2ncc(-c3ccccc3F)cc2C(=O)N([C@H](C)CO)C[C@H]1C,9.6,3.4
CN1C(=O)c2cc(NS(=O)(=O)c3cccc(F)c3)ccc2OC[C@H]2O[C@@H](CC(=O)NCCN3CCCCC3)CC[C@@H]21,7.0,15.6
COc1ccc(CN(C)C[C@H]2Oc3ccc(NC(=O)Nc4ccc(C(F)(F)F)cc4)cc3CC(=O)N([C@H](C)CO)C[C@H]2C)cc1,?,·
CCCN(C)C[C@H]1Oc2cc(Br)ccc2S(=O)(=O)N([C@H](C)CO)C[C@H]1C,-3.4,-3.0
CC(=O)N1CC[C@H]2[C@H](CO)Nc3ccc(-c4ccc(F)cc4)cc3[C@H]21,-1.8,-3.4
C[C@@H]1CCCCO[C@H](CN(C)C(=O)C2CCCCC2)[C@H](C)CN([C@H](C)CO)C(=O)c2cc(NC(=O)NC3CCCCC3)ccc2O1,?,·
O=S(=O)(N[C@H]1CC[C@H](CCn2cc(-c3cccnc3)nn2)O[C@H]1CO)c1ccc(F)cc1,-2.9,-6.8
O=C(N[C@H]1CC[C@@H](CCNC(=O)c2ccccc2F)O[C@H]1CO)c1ccc2c(c1)OCO2,5.3,9.7
C[C@H](CO)N1C[C@H](C)[C@@H](CN(C)Cc2ccc(C(=O)Nc3ccccc3N)cc2)Oc2c(NS(=O)(=O)c3cccs3)cccc2C1=O,-1.1,-1.1
CN(C)C(=O)C[C@@H]1C=C[C@H](NC(=O)Nc2cccc(F)c2)[C@@H](CO)O1,8.0,6.8
COc1ccc2c3c(n(C)c2c1)[C@H](CO)N(C(=O)Nc1ccc(F)cc1)CC31CN(C(=O)NC2CCCC2)C1,-13.8,-11.3
COc1ccccc1S(=O)(=O)N(C)C[C@@H]1Oc2cc(C#CCC3CCCC3)ccc2S(=O)(=O)N([C@H](C)CO)C[C@H]1C,-21.9,-24.0
C[C@H](CO)N1C[C@H](C)[C@H](CN(C)C(=O)Nc2ccc(-c3ccccc3)cc2)OCc2ccccc2-c2c(n(C)c3ccccc23)C1=O,-29.4,-25.8
COc1ccccc1-c1ccc([C@@H]2[C@@H](CO)N3CCCCN(C(=O)c4cccnc4)C[C@@H]23)cc1,5.5,0.2
CCS(=O)(=O)N1CC2(C1)[C@@H](c1ccccc1)[C@@H](CO)N2C(=O)c1ccccc1,11.2,10.9
COc1ccc(S(=O)(=O)N(C)C[C@H]2Oc3c(NC(=O)Nc4cccc5ccccc45)cccc3C(=O)N([C@@H](C)CO)C[C@H]2C)cc1,?,·
O=C(N[C@H]1CC[C@@H](CCNS(=O)(=O)c2cccc(Cl)c2)O[C@H]1CO)c1ccc(F)cc1,0.5,0.7
CC1C=NC(S(=O)(=O)N2CC[C@@H]3[C@H]2c2cc(-c4ccccc4F)ccc2N(C)[C@H]3CO)=N1 (stereo partly drawn),-31.1,-19.3
C[C@H](CO)N1C[C@H](C)[C@H](CN(C)Cc2ccc(C(=O)O)cc2)OCCCC[C@H](C)Oc2ccc(NC(=O)Nc3ccc(F)cc3)cc2C1=O,21.1,5.1
COc1ccc(NC(=O)N(C)C[C@H]2Oc3c(NC(=O)C4CCCCC4)cccc3C(=O)N([C@H](C)CO)C[C@H]2C)cc1,-3.3,-4.7
CO[C@H]1CN(C)C(=O)c2ccc(NS(=O)(=O)c3ccc(-c4ccccc4)cc3)cc2OC[C@@H](C)NC[C@@H]1C,-13.1,-0.2
C[C@H]1CN([C@@H](C)CO)S(=O)(=O)c2ccc(C#CC3CC3)cc2O[C@@H]1CN(C)Cc1ccncc1,?,·
C[C@H](CO)N1C[C@H](C)[C@H](CN(C)S(=O)(=O)c2ccccc2F)OCc2ccccc2-c2ccccc2C1=O,-4.5,-7.2
COc1cccc(-c2ccc([C@H]3[C@H](CO)N4C(=O)CN(C(=O)C5CCC5)C[C@@H]34)cc2)c1,-8.6,-9.1
CCS(=O)(=O)N1[C@H](CO)[C@@H](c2ccc(C#Cc3ccccc3F)cc2)[C@@H]1C#N,-16.5,-14.2
O=C(C[C@@H]1CC[C@@H]2[C@H](COC[C@@H](O)CN2C(=O)Nc2cccc(F)c2)O1)NCc1ccccc1F,-23.2,-17.5
CNC[C@H]1Oc2c(NS(=O)(=O)c3cccs3)cccc2C(=O)N([C@H](C)CO)C[C@H]1C,9.0,5.4
C[C@H]1CN([C@@H](C)CO)S(=O)(=O)c2ccc(-c3cccnc3)cc2O[C@@H]1CN(C)CC1CC1,-0.6,-8.9
CCCC#Cc1ccc2c(c1)O[C@H](CN(C)C(=O)c1cnccn1)[C@@H](C)CN([C@H](C)CO)S2(=O)=O,-2.2,0.4
CC(=O)N(C)C[C@H]1Oc2cc(C#CCC(C)C)ccc2S(=O)(=O)N([C@H](C)CO)C[C@H]1C,-16.9,-14.4
C[C@@H]1CN([C@@H](C)CO)C(=O)c2cccc(NC(=O)c3nc4ccccc4s3)c2O[C@@H]1CN(C)Cc1ccc(C(F)(F)F)cc1,-21.7,-17.3
CCCNC(=O)C[C@@H]1C[C@@H]2c3cc(NC(=O)NC4CCCC4)ccc3O[C@@H]2[C@H](CO)O1,6.4,6.2
Cc1cccc(-c2ccc([C@@H]3[C@H](CO)N4CCCCN(CCC(F)(F)F)C[C@@H]34)cc2)c1,?,·
O=C(C[C@@H]1C[C@H]2c3cc(NC(=O)Cc4ccncc4)ccc3O[C@H]2[C@@H](CO)O1)NCc1cccnc1,4.1,3.3
C[C@H](CO)N1C[C@H](C)[C@@H](CN(C)Cc2cncnc2)Oc2ncc(/C=C/c3ccccc3)cc2C1=O,-19.4,-14.6
CO[C@@H]1CN(C)C(=O)c2ccc(NC(=O)NC(C)C)cc2OC[C@H](C)N(C(=O)CN(C)C)C[C@@H]1C,5.9,12.7
COc1ccc(S(=O)(=O)N(C)C[C@H]2Oc3c(NC(=O)C4CCOCC4)cccc3C(=O)N([C@H](C)CO)C[C@@H]2C)cc1,5.4,4.3
O=C(C1CCCC1)N1C[C@@H]2[C@H](c3ccccc31)[C@@H](CO)N2C(=O)c1ccccc1,1.3,8.6
CC(C)CC#Cc1cnc2c(c1)C(=O)N([C@@H](C)CO)C[C@H](C)[C@@H](CN(C)C(=O)c1cccnc1)O2,25.1,14.2
C[C@@H]1CN([C@@H](C)CO)C(=O)c2cccc(NS(C)(=O)=O)c2O[C@H]1CN(C)Cc1ccc2c(c1)OCO2,8.9,2.9
N#C[C@@H]1[C@@H](c2ccc(/C=C/c3ccccc3)cc2)[C@@H](CO)N1C(=O)C1CC1,-15.5,-3.7

# A different layout for some results above:
CCCNC(=O)C[C@@H]1C[C@@H]2c3cc(NC(=O)NC4CCCC4)ccc3O[C@@H]2[C@H](CO)O1
  Vaccinia inh: 6.4
  Vaccinia inh Venus: 6.2

O=C(C[C@@H]1C[C@H]2c3cc(NC(=O)Cc4ccncc4)ccc3O[C@H]2[C@@H](CO)O1)NCc1cccnc1
  Vaccinia inh: 4.1
  Vaccinia inh Venus: 3.3

# (continued)
SMILES,Vaccinia inh,Vaccinia inh Venus
COc1ccc(NC(=O)Nc2ccc3c(c2)C(=O)N([C@H](C)CO)C[C@@H](C)[C@@H](CN(C)C)OCCCC[C@@H](C)O3)cc1,2.7,-2.2
CCC(=O)N1[C@@H]2Cn3c(cccc3=O)[C@H]1[C@@H](C(=O)NC1CCCCC1)[C@@H]2CO,18.4,9.0
C[C@@H]1CN([C@H](C)CO)C(=O)c2cc(-c3ccccc3)cnc2O[C@H]1CN(C)C(=O)C1CCCCC1,-1.3,-12.4
O=C(C[C@@H]1CC[C@@H]2[C@H](COC[C@@H](O)CN2Cc2ccc(Oc3ccccc3)cc2)O1)N1CCOCC1,-29.5,-26.5
C[C@@H]1CCCCO[C@@H](CN(C)C(=O)Nc2cccc3ccccc23)[C@H](C)CN([C@H](C)CO)C(=O)c2cc(NC(=O)Cc3ccccc3)ccc2O1,24.5,8.9
Cc1noc(C)c1NC(=O)Nc1cccc2c1O[C@H](CN(C)C)[C@H](C)CN([C@@H](C)CO)C2=O,19.1,8.6
COc1ccc(NC(=O)N[C@@H]2CC[C@@H](CCn3cc(C4(O)CCCC4)nn3)O[C@@H]2CO)cc1,3.7,-2.7
Cc1cccc(-c2ccc([C@H]3[C@H](CO)N4C(=O)CN(C(=O)NC5CCCCC5)C[C@@H]34)cc2)c1,-1.7,-1.6
COc1ccc(S(=O)(=O)Nc2ccc3c(c2)C(=O)N([C@H](C)CO)C[C@H](C)[C@H](CN(C)S(=O)(=O)c2ccc(Cl)cc2)OCCCC[C@@H](C)O3)cc1,-4.5,-14.1
O=C(CCN1CCCCC1)NCC[C@H]1CC[C@H](NC(=O)Nc2ccc(Cl)cc2)[C@H](CO)O1,8.9,16.6
C[C@@H]1CCCCO[C@@H](CN(C)Cc2ccc(C(=O)O)cc2)[C@@H](C)CN([C@@H](C)CO)C(=O)c2cc(NC(=O)c3ccncc3)ccc2O1,29.1,10.0
CCC(=O)N1C[C@H](C)[C@H](OC)CN(C)C(=O)c2cc(NC(=O)Nc3ccc(Cl)cc3)ccc2OC[C@H]1C,-6.8,-4.2
CCC(=O)N(C)C[C@H]1Oc2ncc(C#Cc3ccccc3)cc2C(=O)N([C@@H](C)CO)C[C@@H]1C,-2.8,-7.8
C[C@H](CO)N1C[C@H](C)[C@@H](CN(C)C(=O)Nc2ccccc2)Oc2c(NC(=O)C3CC3)cccc2C1=O,14.3,10.9
CCC(=O)N[C@H]1C=C[C@H](CC(=O)NCC2CCCCC2)O[C@@H]1CO,-2.0,-3.3
O=C([C@H]1[C@H](CO)[C@H]2Cn3c(cccc3=O)[C@H]2N1CC1CCCC1)N1CCc2ccccc2C1,-3.7,-1.3
COc1ccc(NC(=O)N2CC(=O)N3[C@H](CO)[C@@H](c4ccc(C5=CCCC5)cc4)[C@@H]3C2)cc1,24.0,17.6
COc1ccc(S(=O)(=O)Nc2cccc3c2O[C@@H](CN(C)C)[C@H](C)CN([C@H](C)CO)C3=O)cc1,5.6,2.3
C[C@@H]1CN([C@@H](C)CO)C(=O)c2cc(C#Cc3ccccc3)cnc2O[C@H]1CN(C)S(=O)(=O)c1ccccc1F,-32.5,-25.9
CC(C)NC(=O)N[C@H]1C=C[C@@H](CC(=O)NCCN2CCCC2)O[C@@H]1CO,-0.6,2.3
C[C@H](CO)N1C[C@H](C)[C@H](CN(C)S(=O)(=O)c2ccc(F)cc2)OCCCC[C@H](C)Oc2ccc(NC(=O)C3CCCCC3)cc2C1=O,0.5,2.2
